# High-throughput results from PubChem.
# UCH37 inh = human UCH37 deubiquitinating enzyme inhibition | Q9Y5K5 | 330,000 compounds, 0.33% hits | inhibition, % (concentration not given with the values) | AID 588478 | purified proteasome/UCH37, Ub-AMC cleavage fluorescence;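 active = mean of two replicates above 20%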;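 also: 0% = compound-free wells with enzyme and 100% = wells lacking proteasome; stock transfer was 100 nL into about 20 µL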
#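 Test system – human UCH37 enzyme supplied as purified proteasome complex · Incubation – 30 min preincubation with enzyme, 25 min cleavage at room temperature · Detection – AMC fluorescence from Ub-AMC cleavage, excitation 355 nm, emission 460 nm · Benchmarks – no-proteasome wells (full inhibition) and compound-free wells (no inhibition)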
# ALR inh = blocks human ALR sulfhydryl oxidase activity | P55789 | purified ALR, DTT oxidation, H2O2 HRP-luminol luminescence | inhibition, % (concentration not given with the values) | 290,000 compounds, 3.8% hits;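 active = mean and each replicate at 75% or more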;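 also: stock transfer was 7.5 nL into about 7.5 µL; 0% = neutral wells and 100% = wells with inactivated enzyme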
# B2AR ag = agonists of human beta-2 adrenergic receptor inducing internalization; AID 504454; Am2.2-beta2AR cells, FAP receptor internalization, flow cytometry; reference of the scale not given here; P07550; 340,000 compounds, 0.43% hits; response, % (no concentration beside the values);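 active = response above a set limit, near 3 SD of response in nonfluorescent compounds, cut at about 42% in these data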;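 also: stock transfer was 100 nL into about 11 µL; a reference agonist was the positive control; negative values mostly stem from fluorescent compounds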
# Target sequence (P07550 whole entry, looked up): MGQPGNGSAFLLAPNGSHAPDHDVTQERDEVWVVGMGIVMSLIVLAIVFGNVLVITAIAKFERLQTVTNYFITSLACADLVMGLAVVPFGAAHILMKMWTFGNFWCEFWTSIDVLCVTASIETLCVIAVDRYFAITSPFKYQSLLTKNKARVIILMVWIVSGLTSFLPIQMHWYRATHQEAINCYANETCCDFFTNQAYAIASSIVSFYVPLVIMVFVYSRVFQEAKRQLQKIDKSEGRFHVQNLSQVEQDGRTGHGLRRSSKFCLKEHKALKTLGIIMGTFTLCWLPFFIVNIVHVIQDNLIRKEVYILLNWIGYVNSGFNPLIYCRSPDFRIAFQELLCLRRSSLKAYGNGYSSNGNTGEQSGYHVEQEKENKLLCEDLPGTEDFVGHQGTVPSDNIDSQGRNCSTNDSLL
# HNF4A DNA FP = change in binding of human HNF4 alpha to DNA. 360,000 compounds, 0.3% hits. AID 1224865. P41235. activity change, % at 10 µM. HNF4a-FITC DNA binding, fluorescence polarization, 1 h; in the data active = activity change above about 30%, passing the limit was not always enough;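 also: controls were the assay level and a saturating level of protein; the project sought stronger binding though the title names inhibitors; some compounds called inactive have numbers as strong as hits; positive values seem to mean higher polarization but the record does not say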
# Target sequence (P41235 whole entry, looked up): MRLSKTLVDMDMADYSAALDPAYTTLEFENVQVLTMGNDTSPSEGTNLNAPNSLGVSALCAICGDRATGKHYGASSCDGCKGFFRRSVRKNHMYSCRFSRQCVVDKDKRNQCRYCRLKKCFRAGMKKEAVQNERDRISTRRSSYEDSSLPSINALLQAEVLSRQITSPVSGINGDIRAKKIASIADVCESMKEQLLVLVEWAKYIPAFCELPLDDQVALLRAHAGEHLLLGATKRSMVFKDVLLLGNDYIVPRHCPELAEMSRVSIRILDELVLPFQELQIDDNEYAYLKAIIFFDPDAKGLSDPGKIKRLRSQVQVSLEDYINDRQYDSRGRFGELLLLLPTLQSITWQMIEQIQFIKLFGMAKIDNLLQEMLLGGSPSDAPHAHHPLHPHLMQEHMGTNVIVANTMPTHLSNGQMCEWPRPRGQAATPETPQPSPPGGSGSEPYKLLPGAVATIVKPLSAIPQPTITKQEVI
# E coli growth = inhibitors of Escherichia coli growth; AID 1053175; 330,000 compounds, 0.21% hits; OD600, 23 h; hits give low values; OD600 absorbance (no concentration beside the values);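 active = OD600 absorbance below the run mean of sample wells minus 3.6 SD, in any replicate, cut at about 0.56 in these data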;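 also: stock transfer was 300 nL into about 60 µL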
# FGF22 binding = shifts melting point of recombinant human FGF22. 340,000 compounds, 1.5% hits. AID 651658. Q9HCT0. recombinant FGF22 thermal shift, SYPRO orange fluorescence; percent of sucrose octasulfate shift, DMSO zero. calls only at 9.99 µM;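 active = melting point raised past a set limit in the mean and every replicate; three in four hits are not shown here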
# Target sequence (Q9HCT0 whole entry, looked up): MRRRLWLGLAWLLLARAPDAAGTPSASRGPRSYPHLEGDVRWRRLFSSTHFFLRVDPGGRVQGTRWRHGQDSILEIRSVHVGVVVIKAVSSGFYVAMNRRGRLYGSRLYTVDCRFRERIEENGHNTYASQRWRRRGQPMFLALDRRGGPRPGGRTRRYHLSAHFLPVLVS
# LANA-H2B inh = blocks KSHV LANA binding to histone H2A/H2B; cell-free LANA-H2A/H2B peptide, fluorescence polarization; 320,000 compounds, 0.6% hits; AID 2629; Q9QR71; inhibition, % (concentration not given with the values); in the data active = inhibition mostly above about 10%, no sharp cut-off; inactive = mostly below about 6.7%;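 also: stock transfer was 7.5 nL into about 10 µL; 0% = median of vehicle wells and 100% = median of positive control wells; one replicate is shown; the record names a cut of 25% in any replicate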
# * marks the source's active call; other numbers are inactive results; i = inactive; . = not tested or not shown; + = active, no number. This is a subset; count on the stated rates, not on these rows.
compound	UCH37 inh	ALR inh	B2AR ag	HNF4A DNA FP	E coli growth	FGF22 binding	LANA-H2B inh
Cc1cc(C(=O)O)n(C(C)(C)C)n1	1.2	0.5	9.1	-1.1	0.611	i	5.9
O=C(Cc1ccc([N+](=O)[O-])cc1)N1CCc2ccccc2C1	3.3	-5.2	-3.2	0.5	0.675	i	-2.3
O=C(CCC(=O)Nc1nnc(C2CCCCC2)s1)NCC1CCCO1 (centres undefined)	0.1	0.0	-6.6	1.5	0.652	.	-3.3
Cc1ccc(S(=O)(=O)NC2CCCC(C(=O)O)C2)cc1 (centres undefined)	3.6	-1.8	-4.0	1.2	0.734	.	-0.7
O=C(CSc1ccc([N+](=O)[O-])cn1)Nc1cc(C(F)(F)F)ccc1N1CCOCC1	2.9	-17.5	7.1	0.5	0.674	i	1.0
CC1CCC(NC(=O)c2cc(S(=O)(=O)N3CCCCC3)ccc2N2CCOCC2)CC1 (centres undefined)	0.2	-5.6	-4.0	2.9	0.704	i	0.9
O=C(O)c1cccc(Oc2ccc([N+](=O)[O-])cc2)c1	6.9	1.5	2.1	-1.9	0.641	.	-449.5
O=C(Cn1cccc1C(=O)c1ccccc1)NCCc1ccccc1	4.3	-3.9	3.0	0.6	0.701	i	-5.1
N#CCOc1coc(CN2CCN(c3ccccc3)CC2)cc1=O	4.1	47.6	12.0	3.4	0.698	i	-1.6
Cn1cnc2c1c(=O)n(Cc1c(Cl)cccc1Cl)c(=O)n2C	-0.4	-16.6	9.4	4.7	0.596	.	-4.8
CCn1ccc(=N)cc1	-0.8	4.1	2.2	-0.4	0.835	.	0.5
COC(=O)CCC(=O)N(C)CC1CCCN(CCc2cccc(C(F)(F)F)c2)C1 (centres undefined)	0.4	-1.7	5.7	1.8	0.669	i	-1.9
Cc1ccc(SCCNC(=S)Nc2cc(C)ccc2C)cc1	2.5	-4.2	-2.1	-0.4	0.688	.	-2.9
Cc1ccc(Cn2nnnc2CN2CCC(O)(c3cccnc3)CC2)cc1	1.0	-19.9	3.4	4.3	0.697	i	4.7
COc1ccccc1N(CC(=O)NC1CC2CCC1C2)S(=O)(=O)c1ccc(C)cc1 (centres undefined)	0.5	-24.2	0.9	-1.3	0.707	i	6.1
Cc1cc(NS(=O)(=O)c2ccc(NC(=O)c3cnc(Cl)c(Cl)c3)cc2)nc(C)n1	1.6	98.7*	-11.1	4.5	0.688	i	-0.7
COc1ccc(NC(=O)CN(C)S(=O)(=O)c2ccc3[nH]c(=O)oc3c2)cc1	5.3	-0.6	19.2	-2.6	0.702	i	0.1
CN(C)S(=O)(=O)c1cccc(C(=O)NCC(C)(C)CNC(=O)c2cccc(S(=O)(=O)N(C)C)c2)c1	0.8	3.3	-9.6	0.8	0.685	i	-5.8
CC(C)(C)c1ccc(OCCC(=O)NC2=NCCS2)cc1	0.9	-0.5	-0.5	-4.4	0.643	.	4.9
N#Cc1c(-c2ccccc2)c(C#N)c2nc3ccccc3n2c1N	-9.3	-9.6	2.2	7.2	0.684	.	-2.3
O=C(O)CSCC(=O)Nc1ccc(-c2nc3ccccc3s2)cc1	.	98.8*	4.0	4.7	.	.	-5.2
CCOCCCNC(=O)C(NC(=O)c1ccc(NC(C)=O)cc1)c1ccc(OC)cc1 (centres undefined)	3.6	-0.9	0.8	-1.9	0.696	.	0.5
CCCNC(=O)Nc1nccs1	4.1	0.3	1.7	-0.8	0.721	.	0.8
Cc1cc(C(=O)O[C@H]2[C@H](Cc3ccccc3)NS(=O)(=O)[C@H]3C[C@@H]4C=C[C@]23O4)ccc1[N+](=O)[O-]	3.5	1.1	-3.9	-4.4	.	i	4.7
NS(=O)(=O)c1cc(C(=O)NC2CCSc3ccccc32)ccc1Cl (centres undefined)	.	2.8	-0.2	-76.6	.	+	2.3
O=C(C1=C[C@H](c2ccc(C(F)(F)F)cc2)C[C@H](OCc2ccc(CO)cc2)O1)N1CCN(Cc2ccc3c(c2)OCO3)CC1	2.6	-9.0	7.0	2.5	.	i	1.2
CC(C)COc1ccc(CSCCNC(=S)Nc2ccccc2)cc1	.	-7.0	-5.1	0.1	0.701	.	1.3
CCn1c(SCC(=O)Nc2ccc(NC(=O)c3ccco3)c(OC)c2)nc2ccccc2c1=O	-151.8	-1.2	2.5	-2.3	0.744	.	4.0
CCCCn1c(SCC(=O)OCC)nnc1-c1ccoc1C	-0.1	6.8	-0.2	0.0	0.69	.	-4.7
CCOc1cc2c(cc1O)C(=NO)CC1C2CCC2(C)C(O)CCC12 (centres undefined)	.	.	22.2	1.0	.	i	.
Nc1nc2c(ncn2C2CCCC2)c(=O)[nH]1	1.0	.	-2.7	1.9	0.694	i	.
COc1ccc(CC(=O)N[C@@H]2c3ccccc3CC[C@H]2OCc2ccccc2)cc1	0.0	.	-5.9	0.8	0.682	i	.
N/C(=N\OS(=O)(=O)c1cccc([N+](=O)[O-])c1)c1ccncc1	.	-31.0	4.7	0.6	.	i	-1.7
C/C(=C\COc1cc(=O)[nH]c2ccccc12)CCC(O)C(C)(C)O (centres undefined)	2.7	-4.3	-10.2	8.8	0.667	i	-6.7
CCn1cc(C(=O)NC(C)C2CC3CCC2C3)cn1 (centres undefined)	3.8	-12.3	1.8	-0.6	0.69	.	-7.0
COC(=O)[C@]1(Cc2ccccc2)N[C@H](CN(C)S(=O)(=O)c2ccc(F)cc2)[C@@H]2C(=O)N(Cc3ccccc3)C(=O)[C@@H]21	0.4	.	2.1	-0.9	0.705	i	-3.4
Cc1ccc(NCc2nnc(SCC#N)o2)c(C)c1	2.8	43.0	-1.7	-0.1	0.586	.	-6.8
CC(=O)Nc1c(C#N)c(C(C)(C)C)cn1C	3.1	16.5	-11.4	1.8	0.683	.	-9.7
CCN(CC)S(=O)(=O)c1cccc(NC(=O)/C=C/c2ccc([N+](=O)[O-])cc2)c1	2.0	-19.9	-3.3	-1.0	0.724	.	1.9
Cc1ccc(S(=O)(=O)N2CCN(S(=O)(=O)c3cccs3)CC2)cc1	-1.7	.	6.4	2.3	0.745	i	-2.8
CCOC(=O)Cc1csc(SCC(=O)Nc2sc3c(c2C(N)=O)CCC3)n1	8.6	25.0	1.8	-14.6	0.755	.	-0.2
CCOC(=O)CNC(=O)COc1ccc(Cl)cc1Br	1.9	-11.7	7.8	6.7	0.722	.	2.6
CC(=O)Oc1ccc(C(=O)Nc2ccccc2C(=O)Nc2ccc(C(=O)O)cc2)cc1	3.8	.	-0.9	4.6	0.674	i	3.0
CN(C(=O)c1cccc(C(F)(F)F)c1)C1CCCc2ccccc21 (centres undefined)	1.6	0.2	-3.6	4.9	0.716	i	-6.5
Cc1nc2sccn2c(=O)c1S(=O)(=O)NCCc1ccc(Cl)cc1	0.4	0.4	-9.2	1.0	0.691	i	-1.5
Cn1cnc2c1c(=O)n(Cc1ccccc1C#N)c(=O)n2C	2.3	1.4	4.4	1.3	0.683	i	2.3
Clc1ccccc1CSc1nc2ccncc2[nH]1	2.8	27.9	2.4	0.4	0.734	i	2.9
S=C(Nc1ccccc1Cl)NC1CCN(Cc2ccccc2)CC1	-11.0	39.1	-4.6	-0.1	0.692	.	0.1
C=CCSc1ncc(-c2ccccc2)cn1	0.8	-36.4	-1.2	-2.2	0.706	i	-12.1
O=C(N/N=C/c1ccc(O)cc1O)c1ccc(NC(=O)C2CCCCC2)cc1	.	19.5	12.6	-3.8	.	i	-3.4
COc1ccccc1N1CCN(C(=O)C(=O)N/N=C/c2ccccc2F)CC1	.	13.2	1.1	-1.7	.	i	3.0
CCCn1c(CN2CCN(C(=O)OCC)CC2)nc2cc(NC(=O)C(C)C)ccc21	1.6	.	0.0	-1.4	0.619	i	-1.2
COc1ccc(-c2cc(-c3c(O)c(OC)c4occc4c3OC)[nH]n2)cc1	2.4	-35.6	13.5	-0.5	0.711	.	-2.1
COc1ccc(N2C(=O)C(Cl)=C(Nc3c(C)n(C)n(-c4ccccc4)c3=O)C2=O)cc1	4.4	30.9	-3.7	-3.8	0.627	i	2.9
CC1=CC(=O)C2=C(C)CCC3C(C)C(=O)OC3C12 (centres undefined)	.	.	.	-0.5	0.721	i	.
Cc1nc2cc(Cl)c(Cl)cc2n1-c1ccccn1	-5.9	-13.3	-7.8	0.2	0.674	i	2.1
Cc1ccc(C(=O)N/C(=C\c2ccc(-c3ccc([N+](=O)[O-])cc3)o2)C(=O)NC2CCS(=O)(=O)C2)cc1 (centres undefined)	11.9	1.9	-49.2	26.1	0.644	i	1.5
Nc1nc(-c2ccco2)nn1C(=O)c1cccnc1	1.5	-18.6	4.7	0.6	0.702	.	3.8
COc1ccccc1C(=O)NCCC(=O)Nc1cccc(C)n1	5.9	3.8	-0.6	-2.3	0.729	i	-6.5
O=C(CSc1c[nH]c2ccccc12)N1CCCc2ccccc21	2.1	44.3	0.2	3.0	0.691	i	-14.3

# Two compounds from above, limited to HNF4A DNA FP and LANA-H2B inh.
Compound,HNF4A DNA FP,LANA-H2B inh
COc1ccc(CC(=O)N[C@@H]2c3ccccc3CC[C@H]2OCc2ccccc2)cc1,0.8,.
N/C(=N\OS(=O)(=O)c1cccc([N+](=O)[O-])c1)c1ccncc1,0.6,-1.7

# Going on with the list.
compound	UCH37 inh	ALR inh	B2AR ag	HNF4A DNA FP	E coli growth	FGF22 binding	LANA-H2B inh
COc1ccccc1NC(=O)c1nnn(CC(=O)Nc2cc(C)cc(C)c2)c1N	-9.3	-7.8	-3.1	-6.3	0.737	i	-0.7
CC1S/C(=N/N=C/c2ccco2)N(Cc2ccc(F)cc2)C1=O (centres undefined)	.	-5.2	-10.0	4.1	.	i	-0.8
COc1cc([N+](=O)[O-])ccc1NC(=O)CSc1n[nH]c(C(C)C)n1	4.8	-10.6	-4.5	-0.8	0.697	i	0.4
Cc1ccoc1C(=O)Nc1cccc2ccccc12	2.4	-25.0	14.2	0.9	0.696	i	-7.4
CCC(C)NC(=O)CSc1ncccc1C(=O)O (centres undefined)	-1.5	26.7	2.9	-1.8	0.693	.	-1.5
O=C(c1ccccc1)N1CCN(S(=O)(=O)N2CCOCC2)CC1	-1.5	-2.0	-5.6	3.9	0.691	i	-0.7
Cc1cc(=O)oc2cc(OCC(=O)NCCc3nc4ccccc4[nH]3)ccc12	-12.6	-5.4	7.9	7.9	0.706	.	2.4
CCC(=O)c1c[nH]c(C(=O)NCc2ccco2)c1	5.1	1.4	2.9	-0.1	0.794	.	3.2
Cc1ccc(Cl)cc1NC(=O)Cn1cccc1	0.7	9.0	6.4	0.0	0.708	.	1.0
COC(=O)c1ccc(CSc2cc(C)c3cccc(C)c3n2)o1	3.0	20.3	3.7	2.7	0.714	i	-3.2
CC(=O)c1csc(COc2cc(Cl)cc(Cl)c2)n1	4.7	-11.5	2.4	-3.9	0.627	i	-2.2
CC(C)CC(COCc1cccc(Cl)c1)N1CCN(C(=O)c2ccc(C(F)(F)F)cc2)CCC1=O (centres undefined)	4.2	-2.4	-2.0	0.8	0.699	i	2.4
CCOc1ccc(S(=O)(=O)N(CC(=O)Nc2cc(C)on2)Cc2ccccc2Cl)cc1	4.7	-8.4	-0.9	-2.3	0.658	.	0.1
CCOC(=O)CSc1nc(C2CC2)cc(-c2ccc(Cl)cc2)c1C#N	4.9	-0.3	2.5	-8.0	0.713	i	5.6
Cc1ccc(-c2nn(CCC#N)cc2C=C(C#N)C#N)cc1	-9.3	2.2	2.6	-0.1	0.658	i	5.7
COc1ccc(Nc2ccc(N3C(=O)CC(C)C3=O)cc2[N+](=O)[O-])cc1OC (centres undefined)	7.0	1.0	-9.7	0.0	0.704	i	-9.6
